Bioassay records deposited in PubChem by The Scripps Research Institute Molecular Screening Center.
LYPLA1 counter = blocks human lysophospholipase 1, a PME1 counter-screen. inhibition, % at 5.9 µM. recombinant LYPLA1, FP-Rh probe fluorescence polarization. actives 0.16% (n = 320,000). O75608. AID 2174;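 active means inhibition above the mean of all tested compounds plus 3 SD, set per campaign, cut at about 14% in these data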;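 further: inhibitors block serine hydrolase probe labeling of LYPLA1 so polarization falls; 0% = enzyme with DMSO and 100% = wells lacking LYPLA1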
ZTA counter = counter-screen for EBNA-1 inhibitors: inhibitors of Epstein-Barr virus ZTA; P03206; ZTA-DNA binding, fluorescence polarization; inhibition, % at 11 µM; actives 0.15% (n = 320,000); in the data active means inhibition above about 33%
Target sequence (P03206 whole entry, looked up): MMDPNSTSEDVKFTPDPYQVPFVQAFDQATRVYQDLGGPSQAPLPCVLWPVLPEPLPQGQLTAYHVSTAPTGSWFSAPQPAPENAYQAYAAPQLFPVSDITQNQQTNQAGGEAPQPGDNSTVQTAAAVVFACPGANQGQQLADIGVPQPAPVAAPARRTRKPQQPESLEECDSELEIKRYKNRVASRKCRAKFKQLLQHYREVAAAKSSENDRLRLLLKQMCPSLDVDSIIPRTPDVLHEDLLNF
PAFAH1B2 FP inh = blocks human PAF acetylhydrolase 1b catalytic subunit 2; P68402; recombinant PAFAH1B2, FP-rhodamine activity probe, fluorescence polarization; inhibition, % at 3.39 µM; actives 1.2% (n = 340,000); AID 492953;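 active means inhibition above the mean of all tested compounds plus 3 SD, cut at about 24% in these data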;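 further: 0% = enzyme with DMSO and 100% = wells lacking PAFAH1B2; many of its hits are not listed in these tables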
Target sequence (P68402 whole entry, looked up): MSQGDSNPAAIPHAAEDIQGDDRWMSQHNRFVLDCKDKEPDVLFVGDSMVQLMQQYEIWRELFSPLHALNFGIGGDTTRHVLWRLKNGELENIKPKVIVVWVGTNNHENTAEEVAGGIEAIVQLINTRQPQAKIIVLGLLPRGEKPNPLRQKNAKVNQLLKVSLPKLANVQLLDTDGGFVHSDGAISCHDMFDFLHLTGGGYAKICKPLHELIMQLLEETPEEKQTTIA
PAFAH2 inh = inhibitors of human PAFAH2. inhibition, % at 3.39 µM. AID 492956. recombinant PAFAH2, FP-rhodamine activity probe, fluorescence polarization. actives 0.99% (n = 340,000);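 active means inhibition above the mean over all tested compounds plus 3 SD, cut at about 30% in these data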;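 further: inhibitors block probe labeling of enzyme so polarization drops; 0% = enzyme with DMSO and 100% = wells lacking PAFAH2 protein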
PREPL inh = inhibitors of human prolyl oligopeptidase-like enzyme PREPL. inhibition, % at 5.96 µM. Q4J6C6. actives 0.68% (n = 320,000). recombinant PREPL, fluorescence polarization activity-based probe. AID 2751; in the data active means inhibition above about 43%;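 further: 0% = enzyme with DMSO and 100% = wells lacking enzyme; many of its hits are not listed in these tables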
PAFAH1B3 inh = PAFAH1B3 (human) inhibition | Q15102 | recombinant PAFAH1B3, FP-rhodamine probe, fluorescence polarization | inhibition, % at 3.39 µM | actives 0.28% (n = 340,000) | AID 492972;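 active means inhibition above the screen-wide average of all tested compounds plus 3 SD, cut at about 25% in these data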;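 further: 0% = enzyme with DMSO only and 100% = wells lacking PAFAH1B3 protein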
Target sequence (Q15102 whole entry, looked up): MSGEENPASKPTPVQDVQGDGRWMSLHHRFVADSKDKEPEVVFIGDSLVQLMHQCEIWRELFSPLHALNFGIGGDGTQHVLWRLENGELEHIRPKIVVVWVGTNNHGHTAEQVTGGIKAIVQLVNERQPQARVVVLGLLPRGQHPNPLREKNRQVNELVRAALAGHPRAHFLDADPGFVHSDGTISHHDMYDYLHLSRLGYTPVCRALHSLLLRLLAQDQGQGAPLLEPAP
EBNA-1 inh = blocks EBNA-1 binding to DNA; actives 0.34% (n = 300,000); AID 1950; EBNA-1 DNA binding, fluorescence polarization; inhibition, % at 14.8 µM; in the data active means inhibition above about 28%
LYPLA2 inh = counter-screen for PME1 inhibitors: inhibitors of human LYPLA2; O95372; recombinant LYPLA2, FP-Rh probe fluorescence polarization; inhibition, % at 5.9 µM; actives 0.38% (n = 320,000); AID 2177;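 active means inhibition above the screen-wide mean plus 3 SD, limit set per campaign, cut at about 26% in these data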;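 further: 0% = LYPLA2 with DMSO and 100% = wells lacking LYPLA2 enzyme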
* = called active by the depositor; · = not tested or not shown. A portion of the library; count on the stated rates, not on these rows.

mol	LYPLA1 counter	ZTA counter	PAFAH1B2 FP inh	PAFAH2 inh	PREPL inh	PAFAH1B3 inh	EBNA-1 inh	LYPLA2 inh
O=C(NCc1cccs1)C1CCCN(c2nc3ccccc3o2)C1 (stereo not given)	-1	-10	1	-1	7	-4	-5	-2
C=CCCCCCCCCC(=O)NNC1=CC(=O)CC(C)(C)C1	0	11	5	23	24	4	10	4
CSc1nn(-c2ccc(C(=O)OCC(=O)NC(=O)NC(C)C)cc2)c(=S)s1	-1	-10	1	10	9	5	-1	4
Cc1cccc(NS(=O)(=O)c2ccc(C(=O)NCC(c3ccco3)N3CCCCC3)cc2)c1C (stereo not given)	1	-3	-1	-1	-14	-6	2	4
Cc1cccc(C(=O)Oc2ccccc2/C=N/NC(=O)c2ccc(NC(=O)C(C)(C)C)cc2)c1	-54	-3	-14	-62	7	-19	1	-88
CCN1C(=O)CC(C(=O)NCCc2ccc(S(N)(=O)=O)cc2)SC1=Nc1ccc(OC)cc1 (stereo not given)	1	1	-1	0	10	-5	-23	0
CCc1c(-c2ccccc2)nc(N)c(C#N)c1-c1cccs1	1	1	-4	-5	-2	5	7	-1
COc1cc2c(cc1OC)-c1cc(NC3CCCCCCC3)nc(=O)n1CC2	-1	9	5	52*	1	6	-7	2
COc1ccccc1NS(=O)(=O)c1ccc(O)c(C(=O)OCc2cccc([N+](=O)[O-])c2)c1	-4	2	18	10	-2	5	0	-3
CC(C)Cn1c(-c2cc(Br)ccc2F)nc2c1c(=O)[nH]c(=O)n2CC(C)C	-6	3	6	-1	8	7	-6	1
CCCCc1c(O)nc(SCC(=O)c2ccccc2)n(-c2ccccc2OC)c1=O	1	-7	3	21	18	4	-4	1
Cc1ccc(NS(=O)(=O)c2ccc(C(=O)N3CC(C)CC(C)C3)cc2)cc1 (stereo not given)	3	-1	12	-1	0	6	1	9
CCOc1ccc(NS(=O)(=O)c2ccc(C(=O)NC3CCC(O)CC3)cc2)cc1 (stereo not given)	1	2	0	7	18	3	2	3
C=CCNC(=O)COc1ccc(S(=O)(=O)Nc2ccc(OCC)cc2)cc1	3	3	3	-8	-2	1	-6	4
O=C(COC(=O)c1ccc(S(=O)(=O)Nc2ccccc2)cc1)NCCC1=CCCCC1	0	0	3	25	-1	-4	-9	2
CCCc1ccc(OCc2ccc(C(=O)N3CCCC3)o2)cc1	3	-11	12	-1	15	2	-7	10
COc1ccc(C(CNC(=O)c2cccc(S(=O)(=O)Nc3ccc(C)cc3)c2)N2CCCCC2)cc1 (stereo not given)	-1	7	-2	2	-24	2	-20	-3
CCCCc1ccc(S(=O)(=O)Nc2ccc(C)c(NS(C)(=O)=O)c2)cc1	-2	7	·	·	-13	·	11	15
O=C(NCc1ccco1)c1ccc(CS(=O)(=O)Cc2ccc(F)cc2)o1	7	-22	5	-1	14	10	5	11
CC(C)(C)SCCNS(=O)(=O)c1ccc(F)cc1	1	3	7	16	-5	6	6	6
O=C(CCc1ccc(CCC(=O)c2cccs2)s1)c1cccs1	0	0	2	4	-50	2	-1	6
COc1ccc(Cl)cc1NC(=O)CN1CCC(n2nnc3cc(C)ccc32)CC1	12	10	0	-4	16	0	-1	-1
O=C(Nc1cnc2sccn2c1=O)c1ccccc1Cl	0	-3	-4	2	0	11	1	2
COc1ccc(NC(=O)[C@H](C)NC(N)=O)cc1S(=O)(=O)Nc1cc(C)ccc1Br	-1	1	2	7	4	5	-11	0
O=C(Nc1cccc(S(=O)(=O)Nc2ccc(SC(F)F)cc2)c1)C1CCC1	·	·	5	6	14	5	·	·
CN(C(=O)COC(=O)c1cccc(NS(=O)(=O)c2ccc(F)c(F)c2)c1)C1CCS(=O)(=O)C1 (stereo not given)	-1	3	4	8	6	-4	-1	-3
O=C(NCC1CCCO1)c1sc(=S)n2c1[nH]c(=O)c1ccc(C(=O)N3CCCCC3)cc12 (stereo not given)	4	-11	20	21	23	26*	2	14
Cc1cc(C)nc(SCCS(=O)(=O)Cc2ccccc2)n1	-3	-2	6	3	-12	0	-11	-7
COc1ccc(NC(=O)COC(=O)/C=C/c2ccccc2[N+](=O)[O-])cc1	2	-4	-2	63*	5	10	1	4
Cc1ccc(CS(=O)(=O)Cc2ccc(C(=O)NCc3ccccn3)o2)cc1	3	11	9	16	0	11	2	8
Cc1ccccc1NS(=O)(=O)c1ccc(C(=O)OCC(=O)NCC(C)C)cc1	4	-9	6	30*	21	6	7	3
Cc1cccc(NC(=O)c2ccc3c(c2)CCN3S(C)(=O)=O)c1C	3	-17	1	-3	12	1	-10	3
Cc1ccc2oc(-c3ccc(NC(=O)c4cccnc4)cc3)nc2c1	-16	10	0	-10	-3	0	-6	-12
CN(Cc1ccccc1)S(=O)(=O)c1ccc(OCC(=O)N2CCC(C(N)=O)CC2)cc1	-2	-17	4	7	17	11	-3	5
O=C(O)c1ccccc1C(=O)c1ccc(Sc2ccc(Cl)cc2)c([N+](=O)[O-])c1	-1	11	11	22	7	7	21	7
Cc1cc(C)cc(OCCNC(=O)c2cc(S(=O)(=O)N3CCOCC3)ccc2F)c1	0	-13	0	0	16	5	-8	3
O=C(c1cccc(S(=O)(=O)Nc2ccc(Br)cc2)c1)N1CCCC1	-2	-6	5	5	-2	4	4	-1
c1ccc(-c2cn(-c3ccccc3)c3ncnc(NCCCN4CCOCC4)c23)cc1	1	-24	-2	-3	14	2	-16	-1
O=C(O)c1ccc(Nc2cc(Cl)c3nonc3c2[N+](=O)[O-])cc1	1	0	2	6	13	10	1	4
COc1cc(C(=O)N/N=C/c2ccc(OC(=O)c3cccc(C)c3)c(OC)c2)ccc1O	-15	-7	14	-27	42	31*	-4	-24
COc1ccc(CN(CCC(c2ccccc2)c2ccco2)C(=O)c2ccco2)cc1 (stereo not given)	-6	6	-2	-1	0	-2	-3	-10
CCOC(=O)C1CCN(C(=O)c2cccc(S(=O)(=O)Nc3ccc(C)cc3C)c2)CC1	0	-11	5	2	-2	10	5	-2
N#Cc1cccc(C#N)c1Oc1ccc(S(=O)(=O)Nc2ccc(Cl)cc2)cc1	2	-1	3	-1	-32	6	1	-2
c1ccc(CSc2nnc(Cc3ccccn3)o2)cc1	2	-18	5	41*	2	-7	8	6
O=C(NCc1ccc(S(=O)(=O)NC2CCCCC2)s1)c1ccccc1	4	-13	3	3	8	3	9	-1
COc1ccc(NS(=O)(=O)c2ccc(C)c(C(=O)N3CCC3)c2)cc1	2	-4	2	3	14	5	-2	5
Cc1ccc(NS(=O)(=O)c2cccc(C(=O)N3CCCCCCC3)c2)cc1	0	-9	6	1	4	6	-4	2
CC(C)CCNC(=O)C1CC(=O)N(CCc2ccccc2)C1 (stereo not given)	0	-3	5	-16	4	9	0	-5
CCc1cc(=O)oc2c3c(cc(OCC(=O)NCc4ccncc4)c12)OC(C)(C)CC3	6	-1	8	55*	12	7	-7	10
COC(=O)C1C(O)=C(C=Nc2ccc3ccccc3c2)C(=O)CC1(C)C (stereo not given)	-2	5	6	-3	5	6	3	2
C[C@@H]1CCC(=O)N(CC[C@H](Sc2ccccc2)c2ccccc2)CC1	1	7	3	22	-2	15	-7	-4
CCCCCCNc1cc2n(c(=O)n1)CCc1cc(OC)c(OC)cc1-2	0	-24	5	77*	-2	7	-3	-3
Cc1ccc(NS(=O)(=O)c2ccc(NC(=O)C3CCCO3)cc2)cc1 (stereo not given)	-2	-1	3	4	-5	6	-2	-2
CCCCCCC(=O)Nc1cc2c(C)cc(=O)oc2cc1C	3	-14	-3	0	11	2	8	6
Cc1ccc(S(=O)(=O)Nc2ccc(-c3nnc(SCc4ccccc4Cl)o3)cc2)cc1	-32	10	-29	-30	-6	-55	5	-36
CC1CN(c2cc(-c3ccccc3)c3ccccc3n2)CC(C)O1 (stereo not given)	1	0	3	5	2	0	5	2

More structures follow.
mol	LYPLA1 counter	ZTA counter	PAFAH1B2 FP inh	PAFAH2 inh	PREPL inh	PAFAH1B3 inh	EBNA-1 inh	LYPLA2 inh
Cc1ccc(CS(=O)(=O)Cc2ccc(C(=O)NCCCN3CCOCC3)o2)cc1	-5	-2	-2	-3	6	0	5	1
Cc1ccccc1NS(=O)(=O)c1cc(C(=O)NCCSC2CCCCC2)ccc1C	-15	4	3	-3	-4	-9	-7	-30
CCOC(=O)Cc1ccc(NS(=O)(=O)c2ccc(SC)cc2)cc1	-2	-11	5	5	4	2	7	2
O=C(COc1ccc(Br)cc1)N1CCc2ccccc21	-1	-11	-1	4	10	9	-3	-3
CC(COS(N)(=O)=O)Cc1ccc(C(F)(F)F)cc1 (stereo not given)	0	-2	6	6	-17	10	3	3
Cc1c(C)c2c(OCC(=O)N3CCC(C(=O)NCC(C)C)CC3)cc3c(c2oc1=O)CCC(C)(C)O3	3	-4	1	50*	-2	5	1	1
CC(Sc1nc2cc([N+](=O)[O-])ccc2n1-c1ccc(F)cc1)C(=O)NCc1ccc2c(c1)OCO2 (stereo not given)	1	-17	-3	-4	-6	-1	6	2
COc1ccc(NS(=O)(=O)c2ccc(N3CCOCC3)c(NC(=O)c3ccccc3Br)c2)cc1	0	-10	1	9	-6	2	-2	3
COc1cc(C(=O)OCC(=O)Nc2ccc3c(c2)OC(F)(F)O3)ccc1OCc1c(C)noc1C	-18	-4	0	75*	3	-4	-7	-30
Cc1ccc(N=C2NC(=O)/C(=C\c3ccsc3)S2)c(C)c1	-7	5	-1	8	12	-3	1	-11
CN1C(=O)/C(=C/c2ccccc2F)Sc2ccc(C(=O)N3CCCC3)cc21	1	-1	3	8	0	3	-5	10
COc1ccc(NS(=O)(=O)c2cccc(NC(=O)C3=NN(c4ccccc4)C(=O)CC3)c2)cc1	14	13	-1	-4	6	6	-2	-2
CC(C)C[C@H](NC(=O)c1nc[nH]c1C(=O)NCc1ccccc1)C(=O)OCc1ccccc1	-9	-3	-4	4	-8	7	1	-15
CCOC(=O)C1=C(C)NC2=C(C(=O)CC(c3ccc(OC)c(OC)c3)C2)C1c1ccc(C)o1 (stereo not given)	-1	-3	-3	-1	7	2	-20	5
NC(=O)NC(=O)COC(=O)CNS(=O)(=O)c1ccc(F)c(F)c1F	-2	4	2	-3	4	3	-5	3
